Source: PubChem
VDR inh: blocks the human vitamin D receptor | P11473 | VDR-SRC2-3 peptide fluorescence polarization, 2 h | Potency, µM, without a hit: max response, negative = inhibition, actives largely listed as inhibitors | actives 0.93% (n = 400,000); active = well fitted inhibition curve with a large enough effect; inconclusive = small, poorly fitted or top-dose-only effect, or another doubt; inactive = no such curve, though single readings can be large or run the other way; note: series mostly up to about 120 µM
Target sequence (P11473 whole entry, looked up): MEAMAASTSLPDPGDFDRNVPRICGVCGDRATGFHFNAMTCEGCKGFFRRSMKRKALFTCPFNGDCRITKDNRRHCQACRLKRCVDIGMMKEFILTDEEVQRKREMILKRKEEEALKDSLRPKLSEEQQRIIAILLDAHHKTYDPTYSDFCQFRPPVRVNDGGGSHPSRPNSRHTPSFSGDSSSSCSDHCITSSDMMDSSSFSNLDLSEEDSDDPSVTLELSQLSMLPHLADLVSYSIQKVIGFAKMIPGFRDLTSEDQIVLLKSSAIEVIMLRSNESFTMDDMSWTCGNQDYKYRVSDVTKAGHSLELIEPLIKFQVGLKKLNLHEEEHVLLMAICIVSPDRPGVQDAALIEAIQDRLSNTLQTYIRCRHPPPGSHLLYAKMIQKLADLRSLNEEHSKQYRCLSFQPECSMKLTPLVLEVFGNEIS
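Measured by FP: displacement of SRC2-3 coactivator peptide from VDR by library compounds, following a two-hour ambient incubation.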
* marks the source's active call; other numbers are inactive results; u = inconclusive; & = joins results of further samples; ! = not confirmed by another sample; [ ] = another dose, or the depositor's remark. % is set by controls: 0 for no effect and ±100 for the full control effect; potency is the fitted concentration of half-maximal effect.

molecule | VDR inh
Cc1cc(C)cc(-n2c(C)cc(/C=C3\C(=O)NC(=O)N(C)C3=O)c2C)c1 | -5%
Cc1cc(/C=C2\C(=O)NC(=O)N(Cc3ccccc3)C2=O)c(C)n1C1CC1 | 2%
CC(C)c1ccc(N2C(=O)NC(=O)/C(=C\c3cnc(-c4ccccc4)nc3)C2=O)cc1 | -22%
OC(c1ccccc1)(c1ccccc1)c1ccncc1 | 0%
NC(=NCCC[C@H](N)C(=O)O)N[N+](=O)[O-] | 3%&2%
NC(=O)c1c(NC(=O)c2ccc(S(=O)(=O)N(CCCl)CCCl)cc2)sc2c1CCCCC2 | 11%
COC(=O)CNC(=O)c1cn(CCC#N)nc1-c1ccc(F)cc1 | -10%
CCCCn1c(O)c(C(CC)=NC(C)c2ccccc2)c(=O)[nH]c1=O (stereo not given) | -3%
O=[N+]([O-])[N-][n+]1cnn(Cc2ccccc2)c1 | 3%
COc1ccc(NP(=O)(Oc2ccc(Cl)cc2)Oc2ccc(Cl)cc2)cc1OC | -14%
CC(CN)CC(=O)O (stereo not given) | 2%
COC(=O)COc1ccc(/C=C2\C(=O)NC(=S)N(c3ccc(C)cc3)C2=O)cc1OC | 25µM*
CN1CCN(c2nc([N+](=O)[O-])nn2C)CC1 | -21%
CN1CCN(c2c[nH]c(=O)[nH]c2=O)CC1 | 10%
C=CCn1c(O)c(/C(C)=N/N2CCCCCC2)c(=O)[nH]c1=O | 1%
Cc1cccc(-c2nc3ccccc3c(=O)n2-n2cccc2)c1 | 13%
Cc1ccc(C)c(CN2C(=O)c3ccccc3Sc3ccc(C(=O)N4CCC5(CC4)OCCO5)cc32)c1 | -3%
N#Cc1ccc(CN2CCC3(CC2)CCN(C(=O)Oc2ccccc2)CC3)cc1 | 2%
CCOC(=O)C1=Nc2ccccc2/C1=C\c1c(O)n(C)c(=O)n(C)c1=O | u
CC(=O)OC1CC(OC2C(O)CC(OC3C(O)CC(OC4CCC5(C)C(CCC6C5CCC5(C)C(C7=CC(=O)OC7)CCC65O)C4)OC3C)OC2C)OC(C)C1OC1OC(CO)C(O)C(O)C1O (stereo not given) | -14%
CC(C)(O)[C@H]1O[C@@H]2CC[C@]3(C)[C@@]4(C)c5[nH]c6ccccc6c5C[C@@H]4CC[C@]3(O)C2=CC1=O | 3%
On1ccccc1=S | 22µM*
COCCNC(=O)CN1C(=O)CN=C(c2ccccc2)c2ccccc21 | -7%
COC(=O)C1=C(c2ccc(F)cc2OCc2ccccc2)C[C@@H]2CC[C@H]1N2C(=O)NCCOc1ccccc1 | -9%

Next section; the last 3 above are carried over.
molecule | VDR inh
On1ccccc1=S | 22µM*
COCCNC(=O)CN1C(=O)CN=C(c2ccccc2)c2ccccc21 | -7%
COC(=O)C1=C(c2ccc(F)cc2OCc2ccccc2)C[C@@H]2CC[C@H]1N2C(=O)NCCOc1ccccc1 | -9%
CC(=O)c1c(C)[nH]c(C(=O)N2CCC3(CC2)OCCO3)c1C | 7%
CC(=O)O/C(=C1\CC2C3CC=C4CC(OC(C)=O)CCC4(C)C3CCC2(C)C1=O)C(F)(F)F (stereo not given) | -18%
CC/C(=N\N1CCCCC1)c1c(O)[nH]c(=O)[nH]c1=O | -15%
O=C(COc1ccccc1/C=C1/NC(=O)NC1=O)Nc1ccccc1 | u
CCOc1ccc(-n2c(O)c(C=NCCCn3ccnc3)c(=O)[nH]c2=O)cc1 | 6%
c1cc(N2CCCC3(CCNCC3)C2)ccn1 | u
N#C/C(=C\c1cccc(O)c1)C(=O)O | u
CC(=Nc1ccccc1N)c1c(O)n(C)c(=O)n(C)c1=O | -2%
COc1ccc(-n2c(SCCN(C)C)nc3ccccc3c2=O)cc1 | 11%
CC=C(CC)C1(CCC)C(=O)NC(=S)NC1=O | -19%
CCCn1c(C)c(C(=O)c2ccc3ccccc3c2)c2ccccc21 | -3%
c1ccc2c(c1)-c1cccc3cccc-2c13 | -9%

Random excerpt: 3 entries already listed, in no set order.
molecule | VDR inh
Cc1cccc(-c2nc3ccccc3c(=O)n2-n2cccc2)c1 | 13%
CN1CCN(c2nc([N+](=O)[O-])nn2C)CC1 | -21%
COC(=O)COc1ccc(/C=C2\C(=O)NC(=S)N(c3ccc(C)cc3)C2=O)cc1OC | 25µM*

Entries above that have a COOH group:
molecule | VDR inh
NC(=NCCC[C@H](N)C(=O)O)N[N+](=O)[O-] | 3%&2%
CC(CN)CC(=O)O (stereo not given) | 2%
N#C/C(=C\c1cccc(O)c1)C(=O)O | u

The listing continues:
molecule | VDR inh
CCOC(=O)CCN=Cc1c(O)n(-c2ccc(Br)cc2)c(=O)[nH]c1=O | 3%
CCCCCn1c(=O)c(C(=O)Nc2cc(C)ccn2)c(O)c2ccccc21 | -15%
CN1CCN(c2c(C#N)c(C(F)(F)F)nn2C)CC1 | 2%
COc1cc(C2c3cc4c(cc3CC3COC(=O)C32)OCO4)cc(OC)c1OC (stereo not given) | -14%
O=C1CCN(C(=O)CCCn2c(=O)oc3ccccc32)CC1 | -2%
Cc1nc2cc(F)ccc2n1C1CCN(Cc2nnnn2CCc2ccccc2)CC1 | -2%
O=c1[nH]c(=O)n(-c2ccccc2)c(O)c1/C=C1/C(c2ccccc2)=Nc2ccccc21 | u
NP(=O)(OCCCc1ccccc1)Oc1ccccc1 (stereo not given) | -18%
CCOc1ccccc1Oc1coc2cc(OC(=O)N(C)C)ccc2c1=O | -6%
O=C1NC(=O)C(=Cc2csc3ccccc23)C(=O)N1 | 35µM*
CCC1CN1P(=S)(N1CC1CC)N1CC1CC (stereo not given) | -1%
CCC1(C)CN(S(=O)(=O)OCC(Cl)(Cl)Cl)C(=O)N1 (stereo not given) | -15%

(continued)
mol | VDR inh
COC(=O)C1=C(c2ccccc2OCc2ccccc2)C[C@@H]2CC[C@H]1N2C(=O)NCCCOC(C)C | 8%
COc1ccc(N=Cc2c(O)n(C)c(=O)n(C)c2=O)cc1 | -3%
CCOC(=O)c1ccc(NC(=O)CSc2nc3c(cc2C#N)N2CCC3CC2)cc1 | -12%
CCOCN(C(=O)CCl)c1c(C)cccc1CC | -7%&9%
CCOC(=O)C(O)(c1ccc(N(CC)S(=O)(=O)c2ccc(C)cc2)cc1)C(F)(F)F (stereo not given) | -21%
CO[C@@H](COC(N)=O)C1=C(N2CC2)C(=O)C(C)=C(N2CC2)C1=O | -12%
CN(CCOc1ccc(C=C2C(=O)NC(=O)NC2=O)cc1)c1ccccn1 | u
CCN1CCN(Cc2cc(OC)c(OC)cc2[N+](=O)[O-])CC1 | 3%
CCOC(=O)c1cc2c(cn1)[nH]c1ccccc12 | -11%
CCCN(CCC)c1c([N+](=O)[O-])cc(S(N)(=O)=O)cc1[N+](=O)[O-] | u
CNC(C)C(O)c1ccccc1 (stereo not given) | 10%
COc1ccc(Cl)cc1C(=O)C1CCCN(CCO)C1 (stereo not given) | 9%
O=[N+]([O-])c1cccc(CN2CCN(Cc3ccc(Cl)cc3)CC2)c1 | 1%
O=C1NC(=O)N(Cc2ccco2)C(=O)/C1=C/c1ccc(-c2cccc([N+](=O)[O-])c2)o1 | 14µM*
CC12CCC(O)CC1CCC1C2CCC2(C)C(C3=CC(=O)OC3)C(O)CC12O (stereo not given) | u
Cc1ccsc1C(=O)C1CCCN(Cc2cnn(C(C)C)c2)C1 (stereo not given) | -19%
O=c1[nH]c(=O)n(CCc2ccccc2)c(O)c1/C=N/N1CCOCC1 | -1%
c1cnc(N2CCC3(CCNCC3)CC2)nc1 | u
CCN1CCN(c2nc([N+](=O)[O-])nn2C)CC1 | -9%
CC1=Nc2cc(C(=O)N3CCC4(CC3)OCCO4)ccc2Sc2ccc(Cl)cc21 | -2%
CC(C)c1ccc(-n2c(O)c(/C=N/NC(=O)c3ccccc3O)c(=O)[nH]c2=S)cc1 | -19%
O=C(C1CC(=O)N(c2ccc(F)c(Cl)c2)C1)N1CCC2(CC1)OCCO2 (stereo not given) | -3%
Cc1ccc(N2C(=O)NC(=O)/C(=C\c3ccc(N4CCOCC4)cc3)C2=O)cc1 | u
CN1CCCC(C(O)(c2ccccc2)c2ccccc2)C1 (stereo not given) | -3%
CS(=O)(=O)N1CCN(C(=N)N[N+](=O)[O-])CC1 | u
CCn1c(N)c(C(=O)NC)sc1=S | 25µM*
COC(=O)N(c1ccccc1)P1(=S)OCCO1 | u
CC[C@H]1CC2CN3CCc4c([nH]c5ccccc45)C(C(=O)OC)(C2)C13 (stereo not given in full) | -26%
CC[C@@H](C(N)=O)N1CCCC1=O | -1%
CCC(=NCCc1ccccc1)c1c(O)n(C2CCCCC2)c(=O)[nH]c1=O | -1%
CCN1CC2(OC(=O)c3ccccc3NC(C)=O)CCC(OC)[C@]34C1[C@H](CC23)[C@@]1(O)C[C@H](OC)[C@H]2CC4C1(O)[C@H]2OC (stereo not given in full) | 0%
CCCCCCn1c(O)c(C=Nc2c(C)n(C)n(-c3ccccc3)c2=O)c(=O)[nH]c1=O | 17%
c1ccc(CC2CCCCN2)cc1 (stereo not given) | -10%
Cc1ccc(-c2nc3ccccc3c(=O)n2-c2cccc(C)n2)cc1 | -18%
CCCNC(=O)N1[C@H]2CC[C@@H]1C(C(=O)OC)=C(c1ccccc1)C2 | -16%
O=C(c1cc(F)ccc1F)C1CCCN(CCCc2ccccc2)C1 (stereo not given) | -1%
O=C1NC(=O)N(c2ccc3c(c2)OCO3)C(=O)/C1=C/c1ccsc1 | u
Cc1ccc(Cn2cccc(C(=O)Nc3nnc(C)s3)c2=O)cc1 | 7%
COC(=O)C1=C(c2ccccc2OCc2ccccc2)C[C@@H]2CC[C@H]1N2C(=O)NCc1ccc(C(F)(F)F)cc1 | -27%
Cc1ccc(NS(=O)(=O)c2ccc(Cl)c(N=Nc3c(O)[nH]c(=O)[nH]c3=O)c2)cc1Cl | u
O=C(c1ccc(-c2ccccc2)c(F)c1)C1CCCN(CCO)C1 (stereo not given) | 6%
CC1CCC2C(C)C(=O)OC3O[C@]4(C)CCC1[C@@]32OO4 (stereo not given in full) | 3%
COc1ccc(-n2c(/C=C/c3ccc4c(c3)OCO4)nc3ccccc3c2=O)cc1 | -13%
CCN1CCN(C(=O)COc2cc(=O)n(CC)c3ccccc23)CC1 | 0%
O=c1c2ccccc2nc(SCC2CCCCO2)n1-c1ccccc1 (stereo not given) | 9%
CC(O)C(C)OC(=O)[C@@H]1C[C@@H]2c3cccc4c3c(cn4C(C)C)C[C@H]2N(C)C1 (stereo not given in full) | -1%
COc1ccc(-n2c(/C=C\c3ccccc3F)nc3ccccc3c2=O)cc1OC | 14%
Cn1cc(/C=C/c2nc3ccccc3c(=O)n2-c2ccccc2)c2ccccc21 | -14%
COC[C@H]1OC(=O)c2coc3c2[C@@]1(C)C1=C(C3=O)C2CCC(=O)[C@@]2(C)C[C@H]1OC(C)=O (stereo not given in full) | 45µM*!
COc1ccc(C2SCC(=O)Nc3c2c(C)nn3-c2ccccc2)cc1 (stereo not given) | -13%

(further entries)
mol | VDR inh
C[C@@]1(CO)[C@H](O)CC[C@@]2(C)[C@H]1CC[C@H]1C[C@@H]3C[C@@]12CC[C@]3(O)CO | 2%
CC(c1ccccc1F)n1cc(C(=O)Nc2ccc3nc[nH]c3c2)nn1 (stereo not given) | -5%
COc1ccc(CCNC(=O)c2c(N)n(CCN3CCOCC3)c3nc4ccccc4nc23)cc1 | 14%
CCOP(=S)(OCC)SCSP(=S)(OCC)OCC | u
C=C(C=O)CC1CC(O)[C@]2(C)OC3CC4OC5C[C@]6(C)O[C@]7(C)CCC8OC9C[C@]%10(C)OC%11C(C)=CC(=O)OC%11CC%10OC9C[C@@H](C)C8OC7CC6O[C@]5(C)CC5OC5C4OC3CC2O1 (stereo not given in full) | -10%
c1ccc2sc(C3(N4CCCCC4)CCCCC3)cc2c1 | 8%
COc1ccc(CNC(=O)CSCc2cnn(-c3ccccc3)c2-n2cccc2)cc1OC | 31%[activator]
O=C1NC(=O)C(=Cc2cn(CCOc3ccc4c(c3)OCO4)c3ccccc23)C(=O)N1 | 3%
C=CCn1c(O)c(C(CC)=Nc2cc(OC)ccc2OC)c(=O)[nH]c1=O | 29%
CCC(=O)Nc1ccc(Cl)c(Cl)c1 | -4%&-24%
COc1cc2c(cc1OC)C(c1c(O)n(CCc3ccccc3)c(=S)[nH]c1=O)NCC2 (stereo not given) | 4%
O=C(COC(=O)c1cccc(O)c1)Nc1ccc(Cl)cc1C(=O)c1ccccc1 | 8%
O=C1NC(=S)SC1=Cc1ccc(N(CCCl)CCCl)cc1 | -27%
Clc1ccccc1Nc1ncnc(-n2cccc2)n1 | 10%
CC(C)CC12CN3CCN(CC(C3)/C1=N/O)C2 | -21%
c1cncc(CNCCc2c[nH]c3ccccc23)c1 | 9%
CCc1ccc(CNCCc2ccc(F)cc2)cc1 | 7%
O=C1CN(C(=O)CN2CCCCC2)C(c2ccccc2)c2cc(Br)ccc2N1 (stereo not given) | -1%
CNC(C)[C@@H](O)c1ccc(O)cc1 (stereo not given in full) | -4%
CN(C(=O)c1ccc(Cl)nc1)C1(c2ccccc2Cl)CCCCC1=O (stereo not given) | 4%
C(=N\NC1=NCCCCC1)/c1c[nH]c2ccccc12 | 2%
CC1CCC(C(C)C)C(OC(=O)Cn2c(COc3ccccc3)[n+](C)c3ccccc32)C1 (stereo not given) | -3%
CNS(=O)(=O)c1ccc(N=Cc2c(O)n(-c3cccc(C)c3)c(=O)[nH]c2=O)cc1 | u

Not all compounds are listed. The share of hits here may be higher or lower than overall.
